Screening data (PubChem BioAssay)
LASV entry inh: blocks Lassa virus binding to or entry into cells. Potency, µM (doses to about 37.9 µM), inactives show at the highest dose activity change, negative = inhibition, actives largely listed as inhibitors. Lassa virus pseudotype entry inhibition, cell reporter; control for the full effect not named in the record. 1.2% of 300,000 active. AID 540256; active means well fitted inhibition curve with a large enough effect; inconclusive means small, poorly fitted or top-dose-only effect, or effect the other way; inactive means flat fitted curve, though single readings scatter; tested in HEK293 cells; note: % is set by controls: 0 for no effect and ±100 for the full control effect; nearly all actives have a fitted effect of over 50% in size; luciferase read-out
Marburg entry inh: inhibitors of Marburg virus binding or cell entry | AID 540276 | 1.8% of 300,000 active | Potency, µM (series often up to 37.8 µM), for the others: at the highest dose activity change, negative = inhibition, hits mostly inhibitors | Marburg virus pseudotyped entry inhibition, cell reporter; control for the full effect not named in the record; about a third of the inactives were read at about 46 µM; active = well fitted inhibition curve with a large enough effect; inconclusive = small, poorly fitted or top-dose-only effect, or effect the other way; inactive = flat fitted curve, though single readings scatter; tested in HEK293 cells; about a fifth of its hits are not listed in these tables; note: % is set by controls: 0 for no effect and ±100 for the full control effect; luciferase read-out
SARS PLpro yeast: inhibitors of SARS-CoV papain-like protease in yeast | Potency, µM (top dose mostly 32.9 µM), for the others: at the highest dose activity, positive = growth rescue | 0.19% of 330,000 active | S. cerevisiae expressing SARS-CoV PLpro, growth rescue; control for the full effect not named in the record; note: 0% is about no effect; nearly all actives have a fitted effect of over 55% in size; growth read by luminescence after 48 h
StopGo reporter: lowers the luciferase signal of an FMDV 2A StopGo reporter; human cells with a luciferase reporter of 2A StopGo recoding; control for the full effect not named in the record; Potency, µM (titrated, usually from 57.9 µM), for the others: top-dose signal change, negative = less light; 1.2% of 410,000 active; active = well fitted falling curve with a large enough effect; inconclusive = small, poorly fitted or top-dose-only effect; inactive = no such curve, though single readings can be large or run the other way; tested in HEK293T cells; note: % is set by controls: 0 for no effect and ±100 for the full control effect; nearly all actives have a fitted effect of over 45% in size; luciferase light after 4 h
Cruzain noTriton: inhibitors of Trypanosoma cruzi cruzain without detergent | purified cruzain, Z-FR-AMC fluorescence, no detergent | Potency, µM, without a hit: max response, negative = inhibition, usual class: inhibitors | 2.3% of 200,000 active; active = well fitted curve in the direction sought with a large enough effect; inconclusive = small, poorly fitted or top-dose-only effect, or another doubt; inactive = no such curve, though single readings can be large; an effect the other way counts as inactive or inconclusive;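 note: plate controls were enzyme without inhibitor for no effect and buffer without enzyme for full effect; nearly all actives have a fitted effect of over 40% in size; top concentration of the series not given in the record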
Target sequence (P25779 123-467 limits assumed): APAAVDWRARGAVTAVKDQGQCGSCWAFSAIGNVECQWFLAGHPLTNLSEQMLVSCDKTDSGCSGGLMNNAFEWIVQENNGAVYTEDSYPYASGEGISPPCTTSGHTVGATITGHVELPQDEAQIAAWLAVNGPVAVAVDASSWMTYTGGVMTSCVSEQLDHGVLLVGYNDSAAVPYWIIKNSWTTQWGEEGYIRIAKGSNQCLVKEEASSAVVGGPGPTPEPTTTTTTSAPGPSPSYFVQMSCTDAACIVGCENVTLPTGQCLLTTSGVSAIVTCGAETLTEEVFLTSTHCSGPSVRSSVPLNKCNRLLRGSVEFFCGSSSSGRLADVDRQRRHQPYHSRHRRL
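Purified cruzain at 1.5 nM, pre-incubated 15 min with compound at room temperature in 100 mM sodium acetate pH 5.5, 5 mM DTT, 0.00005% Triton X-100. Reaction started with 2 uM Z-FR-AMC; AMC fluorescence increase over 60 s gives rate.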
NS1 function inh: inhibitors of influenza NS1 protein function. S. cerevisiae slowed by influenza A NS1, growth recovery by OD600. Potency, µM (top dose mostly 46.1 µM), inactives show at the highest dose activity, positive = more growth. 0.4% of 270,000 active; note: actives are rising curves; nearly all actives have a fitted effect of over 50% in size
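OD600 was taken as the measure of yeast growth restored by compound in an NS1-expressing S. cerevisiae strain. Cells had been washed out of glucose medium and diluted 1:100 into galactose -URA medium, pH 6.0.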
RE007 growth inh: less growth of the S. pombe RE007 Vpr strain. S. pombe RE007 Vpr strain, BacTiter-Glo ATP luminescence, 24 h; control for the full effect not named in the record. Potency, µM (top dose mostly 92.2 µM), for inactives: at the top dose activity change, negative = less growth. 0.21% of 360,000 active. AID 651644; active = well fitted falling curve with a large enough effect; inconclusive = small, poorly fitted or top-dose-only effect; inactive = no such curve, though single readings can be large or run the other way;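 note: % is set by controls: 0 for no effect and ±100 for the full control effect; nearly all actives have a fitted effect of over 50% in size; the assay follows cell death caused by Vpr and the record does not say whether a fall means rescue or toxicity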
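Fission yeast RE007 carrying one integrated HIV-1 vpr copy, seeded at OD 0.01 in PMG+AL medium with 23 nL pinned compound. Grown 24 h at 30 degrees; viability read by BacTiter-Glo luminescence after 5 min.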
Cruzain inh Det: blocks cruzain activity in presence of Triton detergent | P25779 | purified cruzain, Z-FR-AMC fluorescence, 0.01% Triton | Potency, µM, without a hit: max response, negative = inhibition, hits mostly inhibitors | 0.43% of 200,000 active | AID 1478; active = well fitted curve in the direction sought with a large enough effect; inconclusive = small, poorly fitted or top-dose-only effect, or another doubt; inactive = no such curve, though single readings can be large; an effect the other way counts as inactive or inconclusive;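 note: plate controls were neutral wells for no effect and buffer without enzyme for full effect; nearly all actives have a fitted effect of over 40% in size; top concentration of the series not given in the record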
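Detergent-containing arm of a paired screen for aggregation-based inhibition: 0.01% Triton X-100 present. Cruzain at 1.5 nM cleaved 2 uM Z-FR-AMC at pH 5.5 with 5 mM DTT; AMC fluorescence gain over 60 s measured activity.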
* hit, by the source's call; ? = inconclusive; · = not tested or not shown; [ ] = remark or other dose. Unless noted, calls come from the whole dose curve; as a rule, active means well fitted rising curve with a large enough effect; inconclusive means small, poorly fitted or top-dose-only effect; inactive means no such curve, though single readings can be large or run the other way. Potency is the fitted concentration of half-maximal effect.

SMILES	LASV entry inh	Marburg entry inh	SARS PLpro yeast	StopGo reporter	Cruzain noTriton	NS1 function inh	RE007 growth inh	Cruzain inh Det
CCC(=O)N(CC(=O)Nc1sc(C)c(C)c1C(N)=O)C1CCCC1	4%	-15%[46.1 µM]	-3%	-1%	·	·	0%	·
Cc1cccc(C(=O)NCCc2nc3ccccc3n2Cc2ccc(Cl)cc2)c1	-1%[46.1 µM]	?	·	0%	?	·	·	7.9µM*
CCOc1ccc(S(=O)(=O)NCCC(=O)NCC(c2ccccc2OC)N2CCCC2)cc1 (stereo not given)	10%	4%	0%	-12%	·	-4%	0%	·
CCC(C)(C)NC(=O)C(c1ccc(F)cc1)N(Cc1ccccc1)C(=O)c1cnccn1 (stereo not given)	9%[46.1 µM]	-22%	1%	-5%	·	·	-11%	·
CCCN1CNc2c(c(=O)[nH]c(=S)n2-c2ccccc2Cl)C1	16%	-11%[46.1 µM]	-2%	-11%	·	·	-12%	·
CNC(=O)c1cnc2sc(N3CCC(C)CC3)nn2c1=O	22%[46.1 µM]	·	·	33%[activator]	-12%	·	·	-0.7%
Cc1ccc(NC(=O)COC(=O)CCNS(=O)(=O)c2ccc(C)c(C)c2)cc1	3%	-13%	25%	-6%	-4%	-26%	20%	-3.6%
Cc1cccc(OCCCC(=O)Nc2ccc(N3CCCCC3)cc2)c1	-15%	-16%[46.1 µM]	0%	-16%	-12%	?	-7%	2.8%
O=C(NNC(=S)Nc1ccc(Cl)cc1Cl)c1ccc(N2CCOCC2)c([N+](=O)[O-])c1	1%	1%	11%	0%	-13%	22%	8%	-12%
N#CCSc1nnc(-c2ccccc2O)n1Cc1ccccc1	8%	12%	-5%	·	-4%	3%	-4%	1.4%
COc1ccc(CC(=O)Nc2cc(NC(=O)Cc3ccc(OC)c(OC)c3)cc(C(=O)O)c2)cc1OC	·	?	1%	2%	·	5%	16%	·
CCCCn1c(N)c(C(=S)NC(=O)CC(C)(C)C)c(=O)n(C)c1=O	-28%	4%	-15%	?	3%	-4%	38%	-4.4%
Cc1c(Cl)cccc1NC(=O)c1cc(S(=O)(=O)N2CCCCC2)cn1C	26%[46.1 µM]	·	·	0%	0%	·	·	-4.4%
CC1Cc2ccccc2N1C(=O)Cn1cc([N+](=O)[O-])ccc1=O (stereo not given)	5%	?	-2%	-4%	·	·	0%	·
C/C=C/C=C\C(=O)Nc1cccc(C2=NOC3(C2)C[C@H](C(N)=O)N(C(=O)CC#N)C3)c1 (stereo not given in full)	·	4%	1%	-18%	·	-4%	-11%	·
Cc1ccc(NC(=O)CSc2nc(=O)n3cc(C)ccc3n2)c(C)c1	-4%	6%	-3%	-2%	·	·	-12%	·
Cc1c(Cl)cccc1NC(=O)c1cccc(NC(=O)CCC(=O)O)c1	-9%	?	-9%	4%	-6%	-1%	0%	0.1%
COC(=O)[C@H](CC(C)C)NC(=O)Nc1ccccc1F	·	·	2%	-15%	·	-61%	3%	·
Cc1cc(C)c(S(=O)(=O)N2CCC(n3c(C(F)(F)F)nc4cccnc43)CC2)c(C)c1	2%[46.1 µM]	·	·	11%	-2%	·	·	0.5%
Cc1ccc(-n2cccn2)cc1	·	12%[46.1 µM]	0%	15%	·	5%	10%	·
O=C(NN=Cc1ccccc1O)C(O)(c1ccccc1)c1ccccc1	?	-27%	·	2%	·	·	0%	·
CCCNC(=O)c1ccc2nc(CCc3ccccc3)oc2c1	5%[46.1 µM]	·	·	34%[activator]	-3%	·	·	-1.2%
COc1ccccc1/C=c1\sc2nc(-c3ccccc3OC)nn2c1=O	21%	?	-2%	-14%	25%	?	10%	-0.1%
CC(=O)N1CCN(S(=O)(=O)c2cccc(C(=O)Nc3ccc4c(c3)CCC4)c2)CC1	?	?	-26%	2%	?	-3%	-4%	-5.8%
Cc1cccc(NC(=O)CSc2nc3ccc(NC(=O)CCc4ccccc4)cc3s2)c1	-14%[46.1 µM]	5%[46.1 µM]	·	-15%	21%	·	·	-4.9%
CC(=O)Nc1c(C)nn(-c2ccccc2)c1N1CCC(C(=O)NCc2ccc(Cl)cc2)CC1	15%[46.1 µM]	·	·	-17%	?	·	·	-21%
COc1ccc(C(=O)Nn2cc3c(c2-c2ccccc2)c(=O)n(C)c(=O)n3C)cc1	-3%	-8%	2%	14%	12%	-30%	-11%	0.0%
CCOc1ccc(C(=O)NCC(=O)N2CCc3ccccc3C2)cc1OCC	-19%[46.1 µM]	-21%[46.1 µM]	-7%	-4%	·	·	4%	·
CCCC[C@@H]1CNC(=S)N1CCc1cccc(F)c1	·	·	6%	62%[activator]	·	-1%	-6%	·
Cc1cccc(/C(N)=N/OC(=O)CCc2ccccc2)c1	4%	15%	-9%	·	-3%	-11%	-18%	-1.3%
Cc1ccc(C(CC(=O)N2CCCC2)c2ccccc2)c(O)c1 (stereo not given)	·	·	-2%	10%	·	7%	7%	·
Cc1cc(OCC(=O)NCC2CCC(C(=O)O)CC2)c2c3c(c(=O)oc2c1)CCC3 (stereo not given)	·	·	-2%	-15%	·	-2%	0%	·
Cc1cc(NC(=O)c2ccc([N+](=O)[O-])cc2Cl)no1	·	·	2%	40%[activator]	·	3%	-4%	·
COc1ccc(-c2ccc(-c3cc(=O)oc4cc(OC)c(OC)c(OC)c34)cc2)cc1	·	·	11%	-23%	-3%	·	3%	1.5%
Cc1ccc2c(CN3CCN(C(=O)c4ccc(F)cc4)CC3)cc(=O)oc2c1	26%[46.1 µM]	14%[46.1 µM]	·	-12%	1%	·	·	-3.8%
Cc1ccc(Cl)cc1N1CCN(C(=O)Cn2ncn3cccc3c2=O)CC1	·	·	?	?	·	-10%	-13%	·
CCOc1ccc(-c2oc3cc(Cl)ccc3c(=O)c2O)cc1OC	-7%[46.1 µM]	11%[46.1 µM]	·	2%	4%	·	·	-1.3%
CC1=NN(c2ccccc2)C(=O)/C1=C/c1cn(C)c2ccccc12	12%	5%[46.1 µM]	0%	1%	·	-11%	-9%	·
COc1ccc(C(C)NC(=O)c2ccc(Br)cc2)cc1OC (stereo not given)	11%	-2%	-3%	-24%	1%	-8%	-1%	2.4%
Cc1ccc(Cn2nnc3c(=O)n(CC(=O)N4CCCCC4)cnc32)cc1	14%	-6%	23%	7%	2%	-1%	-3%	6.1%
COC(=O)c1cccc(NC(=O)CC2C(=O)NCCN2C(=O)Nc2ccccc2)c1 (stereo not given)	?	0%	-2%	-7%	·	-2%	9%	·
C=CCn1c(=O)n(C(=O)OCC)c2cc(Br)ccc21	7%	9%[46.1 µM]	-8%	-20%	·	·	-14%	·
CCOC(=O)c1ccc(N2C(=O)c3[nH]nc(-c4ccc(C)cc4)c3C2c2cccc(F)c2)cc1 (stereo not given)	?	?	·	?	?	·	·	-3.6%
COc1ccccc1C(=O)NC(=O)COC(=O)C1CC1C (stereo not given)	16%[46.1 µM]	4%	·	68%[activator]	·	·	-13%	·
O=C(CCCn1c(=S)[nH]c2cc3c(cc2c1=O)OCO3)N1CCN(c2ncccn2)CC1	-5%	?	4%	18%	8%	3%	3%	-4.0%
CC[C@H](C)C1NC(=O)[C@H](CC(=O)O)NC(=O)c2cc([N+](=O)[O-])cc(I)c2NCCC(C(N)=O)NC1=O (stereo not given in full)	11%	18%	7%	-16%	12%	5%	-3%	-11%
CCc1c(C)nc(SCC(=O)NNC(=O)c2ccco2)[nH]c1=O	·	·	-2%	-23%	·	-1%	-7%	·
CCOCCCNC(=O)c1cc2c(=O)n(CC)c3ccccc3c2s1	·	·	-1%	0%	·	-2%	4%	·
CC(=O)c1cccc(NC(=O)CN2C(=O)C3C4C=CC(C4)C3C2=O)c1 (stereo not given)	2%	6%	-4%	11%	-7%	?	9%	-0.3%
O=C(Nc1ccc(F)cc1)c1cccc(N2C(=O)C3C4C=CC(C5CC45)C3C2=O)c1 (stereo not given)	?	-13%[46.1 µM]	·	?	·	-3%	1%	·
O=S(=O)(NCCc1ccccc1F)c1cccc(S(=O)(=O)N2CCOCC2)c1	-30%	1%	10%	·	-6%	-18%	2%	-2.3%
CCn1c(CNC(=O)c2ccccc2Cl)cc2ccccc21	·	·	-1%	15%	·	-2%	2%	·
O=C(NC(=S)Nc1ccc(N2CCOCC2)cc1)c1ccc(Cl)cc1	-2%	?	-27%	?	-20%	14%	5%	0.2%
O=C(O)c1ccc(C(=O)c2ccc3c(c2)C(=O)N(Cc2ccco2)C3=O)cc1	-2%	5%	-4%	-11%	-7%	?	15%	-2.6%
Cc1nc2scc(C)n2c(=O)c1S(=O)(=O)NCC1CCN(Cc2ccc(F)cc2)CC1	28%[46.1 µM]	-8%[46.1 µM]	2%	11%	·	4%	0%	·
O=c1oc(-c2cccc(S(=O)(=O)N3CCOCC3)c2)nc2ccccc12	-20%	11%	6%	-4%	23%	-19%	2%	-0.5%
O=S(=O)(c1ccc(Cl)cc1)c1nc(-c2cccs2)oc1SCc1ccccc1F	11%[46.1 µM]	-3%[46.1 µM]	·	22%	?	·	·	-8.1%
COc1cccc(C2C(C(=O)Nc3cccnc3)=C(C)Nc3nnnn32)c1OC (stereo not given)	-20%	?	0%	11%	-4%	-7%	22%	-2.0%
COc1ccccc1N1CCN(C2CCCN(C(=O)c3cc(C)oc3C)C2)CC1 (stereo not given)	·	·	9%	-13%	·	0%	-4%	·
CC(=O)N1CCN(C(=O)c2ccc(S(=O)(=O)Nc3cccc(C(F)(F)F)c3)cc2)CC1	11%	-7%[46.1 µM]	-1%	-10%	·	·	-19%	·
CC(=O)c1ccc(NC(=O)CSc2ccc3nc(-c4ccccc4)cn3n2)cc1	?	·	·	5%	-6%	·	·	-4.7%

One compound at a time, as listed above. Order of screens: LASV entry inh	Marburg entry inh	SARS PLpro yeast	StopGo reporter	Cruzain noTriton	NS1 function inh	RE007 growth inh	Cruzain inh Det
CC(=O)c1cccc(NC(=O)CN2C(=O)C3C4C=CC(C4)C3C2=O)c1 (stereo not given) in the list: 2%	6%	-4%	11%	-7%	?	9%	-0.3%
COc1cccc(C2C(C(=O)Nc3cccnc3)=C(C)Nc3nnnn32)c1OC (stereo not given) in the list: -20%	?	0%	11%	-4%	-7%	22%	-2.0%
